Source: PubChem
MgrA-DNA mod: alters Staphylococcus aureus MgrA binding to DNA; fluorescence polarization; inhibition, %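 (about 10 µg/mL by stock and volumes)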; 0.13% of 84,000 active;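 active = above 50% in either of two replicates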;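 also: 0% = protein plus DNA without compound and 100% = DNA alone without protein; higher means less MgrA bound to DNA so lower polarization; one replicate is shown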
Sa helicase inh: S. aureus DNA helicase inhibition | purified S. aureus helicase, fluorescence unwinding assay; about half of the hits fall short of the stated cut | inhibition, %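 (tested at about 80 µM)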 | 0.05% of 120,000 active | AID 485395;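 active = both duplicates at 50% or more, or one of them with a favoured structure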;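 also: 0% = mean of negative control wells and 100% = mean of positive control wells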
Numbers without * were called inactive; · = no result given. Some of the compounds tested; the hit share may differ from the screen's.

SMILES	MgrA-DNA mod	Sa helicase inh
CCOc1cccc2c(C)nc(Nc3nc4c(c(=O)[nH]3)CCCC4)nc12	·	5.0
COC1(NC(=O)c2ccc(C)cc2)C(C)=CC(=O)C=C1C	·	8.0
CCOC(=O)c1nc(-c2cccc(-n3cccc3)c2)no1	-0.4	·
O=C1CCCN1C(=O)CN1CCCCC1	-2.0	1.0
COC(=O)c1sc2ccccc2c1S(=O)(=O)NCc1ccco1	·	10.0
O=c1c(Oc2ccccc2)c(C(F)(F)F)oc2cc(O)ccc12	·	6.0
NC(=O)CS(=O)(=O)c1nc2ccccc2n1Cc1ccccn1	0.8	6.0
O=C1c2ccccc2-c2nc3nonc3nc21	·	-32.0
Cn1cnnc1SCC(=O)N(c1ccccc1)c1ccccc1	-2.1	24.0
O=C(N(c1ccccc1)c1ccccc1)n1cncn1	-1.9	7.0
Cc1ccc(OCC(=O)O)cc1	-4.8	-12.0
O=C(Nc1ccc(F)cc1)c1cccnc1Oc1ccccc1	-2.2	·
Cc1cc2ccccc2nc1-c1ccc(F)cc1	2.1	·
Nc1ncnc2c1ncn2C1OC(C(=O)O)C(O)C1O (stereo unspecified)	1.3	5.0
CC1=NN(CCc2nc(-c3ccc(Cl)cc3)cs2)C(=O)C1	·	-14.0
O=c1oc(-c2cccc(Cl)c2)nc2scc(-c3ccc(Br)cc3)c12	-1.1	·
CCOC(=O)c1c(N)sc2c1-c1ccccc1C2	0.8	·
CC1=CC(C)(C)NC(=S)N1c1ccc(Cl)cc1	-1.3	·
O=C(O)c1ccc(CSc2nnc(-c3ccco3)o2)cc1	·	19.0
COc1cc(/C=N/c2c(-c3ccc(O)c(OC)c3)nc3ccccn23)ccc1O	-2.1	14.0

Some of these compounds in order of formula weight, smallest number first:
SMILES	MgrA-DNA mod	Sa helicase inh
CC1=CC(C)(C)NC(=S)N1c1ccc(Cl)cc1	-1.3	·
NC(=O)CS(=O)(=O)c1nc2ccccc2n1Cc1ccccn1	0.8	6.0
COc1cc(/C=N/c2c(-c3ccc(O)c(OC)c3)nc3ccccn23)ccc1O	-2.1	14.0

Further compounds:
SMILES	MgrA-DNA mod	Sa helicase inh
CC(C)n1nnnc1SCC(=O)NC(=O)NC1CCS(=O)(=O)C1 (stereo unspecified)	·	19.0
O=C1CCN(C(=O)c2cccc(CN3C(=O)c4ccccc4C3=O)c2)CC1	·	4.0
COc1ccc([C@H]2[C@@H](C(=O)O)c3ccccc3C(=O)N2Cc2ccc3c(c2)OCO3)cc1	·	12.0
O=C1C(=Cc2c[nH]c3ccccc23)C(=O)c2ccccc21	2.6	4.0
O=C(c1ccc(-c2nc3ccccc3s2)s1)N1CCOCC1	·	4.0
COC(OC)c1ccc(C#N)c(SCc2ccccc2)n1	4.3	·
COc1ccc(-c2nc(=O)c3ccccc3o2)cc1	4.1	7.0
CN(C)S(=O)(=O)c1ccc(=O)n(Cc2ccc(-n3ccnc3)cc2)c1	·	-10.0
CCn1c(=N)c(C(=O)NCc2ccccc2)cc2c(=O)n3ccccc3nc21	·	-9.0
NCCCc1cn[nH]c1	-8.2	-5.0
Cc1c(NC(=O)NCc2ccccc2)c(=O)n(-c2ccccc2)n1C	-1.7	2.0
CCc1nc2ccc(C(=O)NCc3cn[nH]c3C)cc2nc1CC	·	-13.0
O=C(Cc1ncc(C(F)(F)F)cc1Cl)NCc1ccco1	-2.0	·
CN1C(=O)C(C)(C)c2cc(S(=O)(=O)NC3CCCCCC3)ccc21	·	7.0
C=CCOC(=O)c1c2nc3ccccc3nc2n2c1[nH]c(=O)c1ccc(C(=O)OC)cc12	·	0.0
COc1ccc(NC(=O)c2c(N)sc(-c3ccccc3)c2C)cc1	·	4.0
O=C1c2ccccc2C(=O)N1CCSc1nnc(-c2ccco2)n1Cc1ccccc1	·	-3.0
CCC(C)NC(=O)C1CCN(c2nc3ccccc3n3cccc23)CC1 (stereo unspecified)	0.6	-5.0
N#CNC(N)=Nc1ccc(Cl)cc1	-2.3	·
COC(=O)c1ccc(C2C(Oc3ccc(OC)cc3)C(=O)N2Cc2ccc(F)cc2)cc1 (stereo unspecified)	1.6	7.0

Structures from the list above that contain a halogen (9):
SMILES	MgrA-DNA mod	Sa helicase inh
O=c1c(Oc2ccccc2)c(C(F)(F)F)oc2cc(O)ccc12	·	6.0
O=C(Nc1ccc(F)cc1)c1cccnc1Oc1ccccc1	-2.2	·
Cc1cc2ccccc2nc1-c1ccc(F)cc1	2.1	·
CC1=NN(CCc2nc(-c3ccc(Cl)cc3)cs2)C(=O)C1	·	-14.0
O=c1oc(-c2cccc(Cl)c2)nc2scc(-c3ccc(Br)cc3)c12	-1.1	·
CC1=CC(C)(C)NC(=S)N1c1ccc(Cl)cc1	-1.3	·
O=C(Cc1ncc(C(F)(F)F)cc1Cl)NCc1ccco1	-2.0	·
N#CNC(N)=Nc1ccc(Cl)cc1	-2.3	·
COC(=O)c1ccc(C2C(Oc3ccc(OC)cc3)C(=O)N2Cc2ccc(F)cc2)cc1 (stereo unspecified)	1.6	7.0

New compounds follow.
SMILES	MgrA-DNA mod	Sa helicase inh
Cc1sc2nc(COC(=O)C(NC(=O)c3ccco3)C(C)C)[nH]c(=O)c2c1C (stereo unspecified)	·	-31.0
CCOc1cc(CN)c(-n2cccc2)cc1OCC	-2.9	-8.0
CS(=O)(=O)n1nc(OC(=O)c2cc(Br)ccc2Cl)cc1N	·	3.0
COc1cccc(CNc2ccc3c(c2)ncn3C)c1	1.4	-13.0
Cc1ccc(C(=O)CNc2cccc3ccccc23)cc1	1.1	-10.0
CC(C)(C)C(=O)Nc1ccc(O)c(-c2nc3ccccc3s2)c1	·	-18.0
Cc1ccc(-n2cnc3cc(N=Cc4ccc(N(C)C)cc4)ccc32)cc1	-0.8	-2.0
O=S(=O)(NCCc1c[nH]c2ccccc12)c1ccc(Cl)c(Cl)c1	-1.3	·
Cc1ccc(C)n1-c1cc(Cl)ccc1C(=O)O	·	13.0
Cc1ccc(C)n1CCN1CCN(C(=O)c2ccco2)CC1	·	-5.0
COc1ccc(NS(=O)(=O)c2ccccc2)cc1	·	2.0
COc1ccc(OC)c(-c2nnc(NC(=O)Cc3cccs3)s2)c1	·	-11.0
COc1ccc(C(=O)CSc2nc(C)cc(C)n2)cc1C	0.4	13.0
O=C(NCCN1CCN(c2ccccc2)CC1)c1cccc(Cl)c1	1.3	·
O=C(c1cnn(C(=O)COc2ccccc2F)c1)c1cc(F)ccc1O	·	-10.0
Cc1ccc(N2C(=O)CC(C3=C(N4CCOCC4)CCCC3)C2=O)cc1 (stereo unspecified)	-0.4	17.0
CC(/C(O)=C(\C#N)c1nc2ccccc2n1C)N1C(=O)c2ccccc2C1=O (stereo unspecified)	·	-8.0
CCCN1C(=O)C(O)(C/C(C)=N\O)c2ccccc21 (stereo unspecified)	-3.5	6.0
CCn1cc(C(=O)OCC(=O)N2CCN(S(=O)(=O)c3ccc(Cl)cc3)CC2)c(=O)c2ccc(C)nc21	·	10.0
CN(C)/C=C(\Sc1nnc(N)s1)C(=O)Nc1ccc(F)c(F)c1F	-0.8	·
Cc1csc2c(SCC(O)C(F)(F)F)ncnc12 (stereo unspecified)	2.8	·
CCCc1nnc(SCC(=O)N2c3ccccc3Sc3ccccc32)o1	-3.0	8.0
NS(=O)(=O)c1ccc(CCn2c(-c3ccccc3)nc(=S)c3c2CCCC3)cc1	1.1	5.0
COc1ccc(N(Cc2cccs2)C(=O)CSc2n[nH]c(-c3cccs3)n2)cc1	·	9.0
Cc1cccc(/C=C2\Sc3ccc(C(=O)NCCC(C)C)cc3N(C)C2=O)c1	-2.5	11.0
CC(C)CNCC(=O)Nc1ccc(S(N)(=O)=O)cc1	·	-11.0
O=C(COC(=O)C1c2ccccc2Oc2ccccc21)NCc1ccco1	·	-6.0
CCOC(=O)c1c(C)noc1-c1ccc(Br)o1	·	-9.0
CC(=O)N1CCC(n2nc(-c3ccccc3)oc2=O)CC1	·	-1.0
COC(CN(C)C(=O)c1ccc(CS(=O)(=O)c2ccccc2C)o1)OC	5.0	18.0
CN1CCN(S(=O)(=O)c2ccc(NC(=O)COc3ccccc3Cl)cc2)CC1	0.6	-18.0
Clc1cccc(-c2csc(Nc3cccnc3)n2)c1	-6.0	·
Oc1ccc(-c2cccc(-c3ccc(O)cc3)c2)cc1	0.6	0.0
Cc1cccc(C2Sc3ccccc3N=C3c4ccccc4C(=O)C32)c1 (stereo unspecified)	-1.1	-4.0
O=C1C[C@H](N2C(=O)c3ccccc3S2(=O)=O)C2CO[C@@H]1O2	7.7	3.0
Cc1ccccc1Nc1nc(N)nc(COC(=O)C2CCN(C(=O)c3ccc(F)cc3)CC2)n1	·	-12.0
O=c1c2cn[nH]c2[nH]c(=S)n1-c1cccc(C(F)(F)F)c1	·	9.0
Cc1ccc2oc(C(=O)OC(CN(C)C)CN(C)C)cc2c1	·	14.0
COc1ccc(-c2nnc(SCc3cc(=O)n4cc(Br)ccc4n3)n2N)cc1OC	·	-9.0
Cc1cc(Cl)ccc1OCC(=O)OCC(=O)N1CCC(C(N)=O)CC1	·	2.0
Cc1c(NC(=O)C2CCCC2)c(=O)n(-c2ccccc2)n1C	-3.7	5.0
Cc1cccc(Oc2ccc(N)cn2)c1C	-1.1	·
Cc1cc(S(=O)(=O)Nc2cccnc2)c(C)s1	·	-8.0
CCn1cc(C(=O)OCC(=O)N2C(C)CCCC2C)c(=O)c2cc(F)c(N3CCN(C(C)=O)CC3)cc21 (stereo unspecified)	·	-4.0
Cc1ccc(C(=O)n2nc(C)c(Sc3nccn3C)c2C)cc1	3.9	·
CCc1nc(C)ccc1OCC(=O)O	-2.6	4.0
O=S(=O)(c1ccc2ccccc2c1)N1CCCCCC1	-2.2	10.0
CC(C(=O)N1c2ccccc2CC1C)N(C)CCOc1ccc(Cl)cc1 (stereo unspecified)	·	-13.0
O=C1CC(N2CCN(S(=O)(=O)c3cccc(C(F)(F)F)c3)CC2)C(=O)N1Cc1ccccc1 (stereo unspecified)	·	-7.0
O=C(NCCc1ccccc1)[C@@H]1CCCN1C(=O)c1cccs1	·	1.0
COc1ccc(C2CC(=O)Nc3ccccc3S2(=O)=O)cc1OC (stereo unspecified)	·	-5.0
COCCNC(=O)c1c[nH]c2ccc(S(=O)(=O)N3CCc4ccccc43)cc2c1=O	·	2.0
O=C1CN(S(=O)(=O)c2ccccc2)c2ccccc2N1	·	-22.0
Oc1ccccc1OCC(O)c1ccccc1 (stereo unspecified)	-0.2	-19.0
Cc1ccc(C)c2[nH]c(=O)c(CCNC(=O)C(C)(C)Oc3ccc(Cl)cc3)cc12	1.2	10.0
CN1C(=O)/C(=C/c2cccs2)SC1=S	1.6	-6.0
COC(=O)C(F)C(=O)OC	·	6.0
CC(C)c1ccc2oc(-c3ccc(N)cc3)nc2c1	0.8	13.0
O=C1CCCc2cc(S(=O)(=O)NCC3CCN(CCc4cccs4)CC3)ccc2N1	·	10.0
CCCN1CCN(C(=O)c2sc3nc4n(c(=O)c3c2C)CCCC4)CC1	0.8	-9.0

Going on with the list.
SMILES	MgrA-DNA mod	Sa helicase inh
CCOC(=O)c1cc(NC(=O)c2ccoc2C)cc(C(=O)OCC)c1	2.4	-9.0
O=C1OCC2=C1C(c1ccc3c(c1)OCO3)Sc1ccccc1N2 (stereo unspecified)	-0.9	8.0
CC(C)NC(=O)Cn1c2ccccc2c2cn[nH]c(=O)c21	1.2	-3.0
COc1ccc2c(c1)C(C)CC(C)[N+]2(C)C (stereo unspecified)	-1.8	-14.0
CCOC(=O)CN1c2ccccc2NC(=O)CC1C (stereo unspecified)	·	14.0
CNC(=O)COc1coc(CN2CCc3ccccc32)cc1=O	·	16.0
N#Cc1ccccc1NC(=O)CCCc1ccccc1	5.5	7.0
CCOc1ncnc2c1cnn2-c1ccccc1	·	10.0
O=C(NCc1ccccc1)C1CCN(C(=O)c2ccccc2)CC1	-0.3	7.0
C=CCNC(=S)Nc1ccccc1	·	-1.0
C/C(NCc1ccncc1)=C(\C#N)C(N)=O	0.2	·
CCn1c(C(C)Oc2ccc(Cl)cc2)n[nH]c1=S (stereo unspecified)	·	-20.0
Cc1ccc(C(=O)O)o1	-2.6	-13.0
NNc1nc(-c2ccccc2)cc(-c2ccccc2O)n1	6.1	15.0
CCC1CCCCN1C(=O)Cn1c(=O)n(C2CCCC2)c(=O)c2ccccc21 (stereo unspecified)	-1.2	5.0
COc1cc2[nH]c(=O)n(CCCCCC(=O)NC3CCCC3)c(=O)c2cc1OC	·	-1.0
COc1cc(SC)ccc1C(=O)Nc1nnc(C(F)(F)F)s1	-2.7	-6.0
CCOc1cccc(N2C(=O)/C(=C\c3ccc(N(CC)CC)cc3OC)C(=O)NC2=S)c1	-4.0	·
CCCc1cc(=O)oc2cc(OCC(=O)NN)ccc12	-0.5	·
CC(C)(C)N1COc2ccc3c(-c4ccccc4)cc(=O)oc3c2C1	·	16.0
CC1CC(C)CN(C(=O)COC(=O)Cc2cn3ccsc3n2)C1 (stereo unspecified)	·	-7.0
O=C1CCCC/C1=C/NC1CCCCC1	-1.5	0.0
Cn1c(S(C)(=O)=O)nc2ccccc21	·	11.0
COC(=O)C1=C(C)NC(C)=C(C(=O)OC)C1C(=O)OCc1cccc(S(=O)(=O)N(C)C)c1	·	10.0
COC(=O)C1CCN(C(=O)COC(=O)Cc2coc3cc(C)ccc23)CC1	·	-12.0
CNCCOc1ccccc1	6.0	7.0
O=C(Nc1ccccc1Cl)c1cn2ccccc2n1	0.8	-11.0
CCOc1ccc2nc(NC3=NCCC(=O)N3)nc(C)c2c1	-1.0	8.0
CNC(=O)c1cc2sc(Cl)cc2n1C	2.4	12.0
Cc1ccc(CNC(=O)C2CCCN(S(=O)(=O)c3c(C)n[nH]c3C)C2)cc1 (stereo unspecified)	·	35.0
CCC1CCCCN1C(=O)c1cc(-c2ccc(Cl)cc2)on1 (stereo unspecified)	·	18.0
O=C(CN1CCN(c2ccccc2F)CC1)C12CC3CC(CC(C3)C1)C2	·	-5.0
COc1ccc(C2=CCCC2)cc1	·	-21.0
CCN(CC(=O)N1N=C(c2ccccc2)CC1c1ccc(OC)cc1)Cc1nc2ccccc2c(=O)[nH]1 (stereo unspecified)	·	3.0
c1cc2c(cc1CNc1ccc(N3CCCC3)cc1)OCO2	18.0	6.0
